Assay outcomes (PubChem BioAssay)
VACV mCherry inh: vaccinia inhibition (mCherry reporter); AID 720579; Potency, µM (highest dose often 36.5 µM), for inactives: at the top dose activity change, negative = inhibition, most hits filed as inhibitors; 310,000 compounds, 0.63% hits; Vaccinia virus mCherry reporter infection, fluorescence; about a quarter of the inactives have no number; active = well fitted inhibition curve with a large enough effect; inconclusive = small, poorly fitted or top-dose-only effect; inactive = no such curve, though single readings can be large or run the other way; tested in A549 cells; further: nearly all actives have a fitted effect of over 35% in size; inactives centre near -10
VACV Venus inh: inhibitors of vaccinia virus (Venus reporter). Potency, µM (doses to about 36.5 µM), for the others: at the highest dose activity change, negative = inhibition, most hits filed as inhibitors. 330,000 compounds, 0.46% hits. Vaccinia virus Venus reporter expression, fluorescence. AID 720580; active means well fitted inhibition curve with a large enough effect; inconclusive means small, poorly fitted or top-dose-only effect; inactive means no such curve, though single readings can be large or run the other way; tested in A549 cells; further: nearly all actives have a fitted effect of over 30% in size; inactives centre near -10
Starred values were filed as active, the others as inactive; i = inactive; ? = inconclusive; · = no result given; & = joins results of further samples; ! = a repeat was not active; [ ] = dose if it differs, or a comment. On the % scale 0 is the no-effect control and ±100 the full control effect; potency means the concentration at half of the fitted maximal effect.

SMILES	VACV mCherry inh	VACV Venus inh
CCc1ccc(CN2CCC(n3nccc3NC(=O)c3ccc4c(c3)OCO4)CC2)cc1	?	?
CC(=O)c1cc(CN2CCN(CCC(C)C)C(CCO)C2)cs1 (configuration not stated)	-12%	4%
O=C(Cc1ccccc1[N+](=O)[O-])NCc1ccco1	12%	7%
CCOc1cc(/C=C2/C(=O)NN(c3cccc(Cl)c3)C2=O)ccc1O	-8%	-3%
COc1ccc(C2=NCC(=O)N(CC(=O)NCc3ccco3)c3sc4c(c32)CCCC4)cc1OC	-17%	-16%
CCOC(=O)c1ccc(NC(=O)C(C)Sc2nc(O)c(-c3ccccc3)c(=O)[nH]2)cc1 (configuration not stated)	i	3%
COc1ccc(CC(=O)OCC(=O)Nc2ccc(F)cc2)cc1	-15%	-14%
CCOc1ccc2nc(NC(=O)NC3CCCCC3)sc2c1	6%	-6%
CC(C)C[C@H](NC(=O)c1nc[nH]c1C(=O)N1CCc2ccccc2C1)C(=O)OC(C)(C)C	-1%	-22%
Cc1ccc(NC(=O)Cn2c(=O)n(-c3ccc(C)cc3)c(=O)c3ccc(C(=O)NCc4ccccc4Cl)cc32)cc1	?	?
O=C(O)CCn1cc(/C=C/C(=O)c2ccc(Cl)cc2)c(-c2cccc(Br)c2)n1	-4%	-15%
CC(=O)N1CCN(C(=S)c2ccc(-c3ccc(Cl)cc3)o2)CC1	·	-19%
Cc1sc(NC(=O)C2CC(=O)N(Cc3ccco3)C2)nc1-c1ccccc1 (configuration not stated)	-30%	-30%
O=C1/C(=C/N(C(=O)c2ccco2)c2ccc(Cl)cc2)Sc2ccccc21	49%[activator]	-6%
COc1ccc(-c2noc(CCC(=O)NCc3ccc(OC)cc3OC)n2)cc1	-6%	-4%
COc1ccc(CCNC(=O)C(=O)NCC2CCCN2S(=O)(=O)c2cc(C)ccc2C)cc1 (configuration not stated)	?	-27%
CCC(=O)NC1=C(C#N)C2(CCCC2)Cc2ccccc21	·	-12%
COc1cc(/C=N/NC(=O)c2cccc3ccccc23)cc(OC)c1OC	-7%	-7%
O=c1[nH]c(=S)[nH]c2nc(-c3ccccc3)cnc12	?	-15%
CCOc1ccc(NC(=O)CSc2nc3ccsc3c(=O)n2C(C)CC)cc1 (configuration not stated)	-12%	-9%
CCOC(=O)c1ccccc1NC(=S)N1CCN(C(=O)c2ccco2)CC1	-8%	1%
O=C1Nc2ccc(NS(=O)(=O)c3cccs3)c3cccc1c23	i	1%
COc1ccccc1NS(=O)(=O)c1cccc(C(=O)NC2CCN(Cc3ccccc3)CC2)c1	?	-10%
Cc1ccn2c(NC3CCCCC3)c(-c3ccc(C)o3)nc2c1	-11%	-14%

Looked up above:
Under VACV Venus inh, COc1ccccc1NS(=O)(=O)c1cccc(C(=O)NC2CCN(Cc3ccccc3)CC2)c1 shows -10%
Under VACV mCherry inh, COc1ccc(-c2noc(CCC(=O)NCc3ccc(OC)cc3OC)n2)cc1 shows -6%

The list goes on.
SMILES	VACV mCherry inh	VACV Venus inh
O=C(NCCc1ccncc1)Nc1ccccc1Cl	-8%	2%
COc1ccccc1CNc1ncnc2nc[nH]c12	3.5µM*!	?
c1ccc(SC23CC4CC(CC(C4)C2)C3)nc1	i	-20%
Cc1sc2ncn(Cc3ccccc3F)c(=O)c2c1C	i	-20%
Fc1cccc(Cl)c1C1SCc2nc3ccccc3n21 (configuration not stated)	-7%	-14%
CC1=NCCN1CCNC(=O)Nc1ccc(C(C)(C)C)cc1	-1%	-8%
O=C(COc1cccc(C(F)(F)F)c1)NCC(c1ccco1)N1CCCCC1 (configuration not stated)	-26%	-4%
O=C(NCc1cccnc1)c1cc(S(=O)(=O)N2CCCCC2)ccc1Cl	-8%	-9%
Cc1cccc(CSCc2ccc(C(=O)NC3CCCC3)o2)c1	i	-8%
Cc1ccc(OCC(=O)Nc2ccc(CN3CCCCC3)cc2)c(C)c1	-20%	?
CCn1c(SCC(=O)Nc2cccc(NC(C)=O)c2)nc2c([nH]c3ccccc32)c1=O	-9%	-10%
Cc1ccc(S(=O)(=O)N(C)c2ccc(C(=O)NC3CCCCC3)cc2)cc1	i	-21%
CCOC(=O)Cc1cnc(N)s1	i	-10%
COc1cc(C)ccc1OCCSc1nc2ccc(NC(=O)c3ccco3)cc2s1	i	-20%
O=C1CC(N(CCc2ccccc2)C(=S)Nc2ccccc2)C(=O)N1c1ccc(Br)cc1 (configuration not stated)	?	?
Cc1ccc(S(=O)(=O)Nc2cccc(-c3ccc(N4CCC(C)CC4)nn3)c2)s1	-19%	-11%
COc1ccccc1C(=O)OCCN=C1NS(=O)(=O)c2ccccc21	-5%	0%
CCCn1c(N)c(N2CCCCC2)c(=O)n(CC(=O)Nc2ccc(OC(F)(F)F)cc2)c1=O	-15%[1.46 µM]	-13%
Cn1c(-n2cccc2)c(-c2c(-c3ccc(F)cc3)[nH]c3c2c(=O)n(C)c(=O)n3C)c(=O)n(C)c1=O	i	-6%
CCC(=O)c1ccc(OCC(=O)Nc2ccccc2C(=O)N2CCCCC2)cc1	-22%	8%
CCOc1ccc(S(=O)(=O)NCCC(=O)NCc2ccco2)cc1	i	-8%
O=C1N(Cc2cccc(Cl)c2)C[C@@H]2C[C@@H](c3cccc4cccnc34)N3CCC[C@@]123	?	-9%
CC1CCCN(C(=O)CCl)C1 (configuration not stated)	i	-9%
CC(C)N(C(=O)/C=C/c1cccc([N+](=O)[O-])c1)C(C)C	-18%	4%
S=C(NCc1ccc(Cl)cc1)NC1CCN(Cc2ccccc2)CC1	-12%	?
Cc1ccc(N2C(=O)C3CCC(C)(C2=O)C3(C)C)cc1C (configuration not stated)	i	1%
CCOc1nc(C)ccc1-c1noc(C)n1	i	-4%
Cc1ccc(/C=C/C(=O)N2CC(C)CC(C)C2)o1 (configuration not stated)	·	-28%
O=C(NCC1CCCO1)C(c1ccncc1)N(Cc1ccc(F)cc1)C(=O)CN1C(=O)c2ccccc2S1(=O)=O (configuration not stated)	-12%	-13%
CC1CCCN(S(=O)(=O)c2ccc3c(c2)CCN3C(=O)CCC(=O)O)C1 (configuration not stated)	-3%	-12%
COC(=O)c1cc(=O)n(Cc2ccc3c(c2)OCO3)c(=Nc2ccccc2)s1	-13%	-6%
COc1ccccc1C(CNc1ncnc2sc(C)c(C)c12)N(C)C (configuration not stated)	-20%	-15%
Cc1c(C(=O)NC2CCS(=O)(=O)C2)oc2ccccc12 (configuration not stated)	-9%	-4%
CCN(CC(=O)NC(=O)NCc1ccco1)Cc1ccccc1	-3%	-1%
Cc1ccc(S(=O)(=O)c2cc(C)cc(S(=O)(=O)Nc3ccc(C(=O)O)cc3)c2C)cc1	-4%	-10%
O=C(NCc1ccc(F)cc1)Nc1cccc(Cl)c1	-13%	6%

Reprinted at random: 2 records from the list.
SMILES	VACV mCherry inh	VACV Venus inh
CC1=NCCN1CCNC(=O)Nc1ccc(C(C)(C)C)cc1	-1%	-8%
O=C1CC(N(CCc2ccccc2)C(=S)Nc2ccccc2)C(=O)N1c1ccc(Br)cc1 (configuration not stated)	?	?

Later entries
SMILES	VACV mCherry inh	VACV Venus inh
O=C(Nc1cccc(NC(=O)c2cccnc2Cl)c1)c1ccco1	-3%	-13%
CCCCCc1ccc(-c2cn(Cc3ccc([N+](=O)[O-])cc3)nn2)cc1	-20%&-15%	-15%&-9%
O=C(CN1CCN(c2ccccc2)CC1)N/N=C/c1cccc(F)c1	-3%	-13%
CNc1ncnc2c1ncn2[C@H]1CN(C2CCCC2)C[C@@H](CO)O1	4%	17%
CC1Cc2ccccc2N1CC(=O)Nc1cccc(S(N)(=O)=O)c1 (configuration not stated)	-12%	-10%
Cn1nccc1C(=O)N1CCc2c([nH]c3ccccc23)C1c1ccc(F)cc1 (configuration not stated)	-7%	11%
Cc1ccc(CC2(C)C(=O)Nc3ccc(OC(F)(F)F)cc32)cc1 (configuration not stated)	-26%	-24%
CS(=O)(=O)N1CCN(C(=O)c2cc(-c3cccnc3)nc3ccc(Br)cc23)CC1	0%	-12%
CCOC(=O)c1c(C)n(C)c2ccc(O)c(CN3CCN(C)CC3)c12	-20%	-7%
COC(=O)c1ccc(NC(=O)c2snnc2-c2ccccc2)cc1	-6%	-15%
CCOC(=O)c1c(NC(=O)c2cc(-c3ccccc3)on2)sc2c1CCCC2	5%	-2%
COc1ccccc1CNC(=O)CCn1c(=O)c2ccccc2n(CC(=O)Nc2ccc(C)cc2)c1=O	-9%	-6%

Molecules shown so far that have an NH in an aromatic ring (seven):
SMILES	VACV mCherry inh	VACV Venus inh
CCOC(=O)c1ccc(NC(=O)C(C)Sc2nc(O)c(-c3ccccc3)c(=O)[nH]2)cc1 (configuration not stated)	i	3%
CC(C)C[C@H](NC(=O)c1nc[nH]c1C(=O)N1CCc2ccccc2C1)C(=O)OC(C)(C)C	-1%	-22%
O=c1[nH]c(=S)[nH]c2nc(-c3ccccc3)cnc12	?	-15%
COc1ccccc1CNc1ncnc2nc[nH]c12	3.5µM*!	?
CCn1c(SCC(=O)Nc2cccc(NC(C)=O)c2)nc2c([nH]c3ccccc32)c1=O	-9%	-10%
Cn1c(-n2cccc2)c(-c2c(-c3ccc(F)cc3)[nH]c3c2c(=O)n(C)c(=O)n3C)c(=O)n(C)c1=O	i	-6%
Cn1nccc1C(=O)N1CCc2c([nH]c3ccccc23)C1c1ccc(F)cc1 (configuration not stated)	-7%	11%

Continuation:
SMILES	VACV mCherry inh	VACV Venus inh
NC(=O)c1ccc(NS(=O)(=O)c2ccccc2F)cc1	-14%	0%
Cc1ccc([C@H]2C(C(=O)O)=CC[C@@H](c3cccc(C)c3)N2S(=O)(=O)c2ccc(C)cc2)cc1	-18%	-10%
COc1cc(/C=C/c2nc(N)nc(-c3ccccc3O)n2)cc(OC)c1OC	-5%	-18%
O=C(C[C@@H]1C/C=C\C[C@H](Cc2ccc(F)cc2)C(=O)OCCNC1=O)NCCO	i	-5%
Cc1c2cnn(CC(=O)N3CCCCC3)c(=O)c2c(C)n1Cc1ccc(Cl)cc1	-15%	-19%
CCCS(=O)(=O)c1nc(S(=O)(=O)c2ccc(C)cc2)c(N2CC(C)OC(C)C2)s1 (configuration not stated)	-12%[7.34 µM]	-10%[7.34 µM]
CC(Sc1nnc(Cc2ccc3c(c2)OCO3)o1)C(N)=O (configuration not stated)	-9%	-15%
CCc1ccc(NC(=O)C(C)Oc2nnc(-c3cccs3)c(-c3cccs3)n2)cc1 (configuration not stated)	·	-12%
Cc1cccc(N2CCN(C(C)C(=O)N3CCc4ccccc43)CC2)c1C (configuration not stated)	-5%	5%
CCOC(=O)CSc1nnc(Cn2nnc(-c3ccccc3)n2)n1CC	·	-25%
C/C(=N/OC(=O)c1cccc(C(F)(F)F)c1)c1cnccn1	i	-2%
COc1nccnc1NS(=O)(=O)c1ccc(NC(=S)NC(=O)/C=C/c2ccccc2)cc1	-14%	-10%
COc1cc(C(=O)Nc2ccc(S(=O)(=O)N(C)c3ccccc3)cc2)cc(OC)c1OC	?	-21%
O=C(Cc1c(F)cccc1Cl)NCc1cccnc1	i	-5%
O=c1sc(/C=N/Nc2ccccc2)c(Cl)n1Cc1ccccc1	-15%	7%
Cc1ccc2oc(=O)c3cc(C(=O)N4CCN(C)CC4)sc3c2c1	0%	2%
COc1cccc(CNC(=O)c2ccc3c(Cl)c4c(nc3c2)CCCC4)c1	-7%	-7%
COc1ccc(OCC(=O)OCC(=O)NC2CCCC2)cc1	-15%	-3%
O=C(Nc1cccc(Cl)c1Cl)c1cc2nc(-c3ccc4c(c3)OCO4)cc(C(F)(F)F)n2n1	5%	1%
COc1ccc(OC)c(Nc2nc3nonc3nc2N2CCCCC2)c1	i	1%
Cn1c(=O)c2c(ncn2CCC(=O)N/N=C/c2ccncc2)n(C)c1=O	i	-8%

Four structures from above, ordered by SMILES length, largest number first.
SMILES	VACV mCherry inh	VACV Venus inh
CCn1c(SCC(=O)Nc2cccc(NC(C)=O)c2)nc2c([nH]c3ccccc32)c1=O	-9%	-10%
Cc1sc(NC(=O)C2CC(=O)N(Cc3ccco3)C2)nc1-c1ccccc1 (configuration not stated)	-30%	-30%
COc1ccc(-c2noc(CCC(=O)NCc3ccc(OC)cc3OC)n2)cc1	-6%	-4%
Cc1c(C(=O)NC2CCS(=O)(=O)C2)oc2ccccc12 (configuration not stated)	-9%	-4%
